Screens (PubChem BioAssay)
RN4220 kill: S. aureus RN4220 growth inhibition; OD600, 16 h; inhibition, % (test concentration not listed); 330,000 tested, 0.33% active; AID 1259311;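 active = z-score of -3 or lower and OD600 up to 0.18 on both plates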;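 also: plate controls were untreated cells for no effect and reference antibiotic for full effect; stock transfer was 100 nL into about 80 µL; one replicate is shown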
PrP 5UTR inh: suppresses PrP 5' UTR mRNA reporter expression | AID 488862 | cell-based PrP 5' UTR mRNA reporter, plate reader | 340,000 tested, 0.35% active | inhibition, % (test concentration not listed);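 active = every replicate at 50% or more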;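 also: 0 = median of the neutral control wells; tested in H4 reporter cells; numbers are from one replicate; inactives centre near -14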
Autofluor counter: counter-screen for toxin protease inhibitors: compound fluorescence | 360,000 tested, 3.1% active | compound autofluorescence counterscreen, microsphere flow cytometry; hits give high values | fluorescence intensity (test concentration not listed) | AID 624483;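 active = at least 3 SD above the mean of all compounds, about 16000 in these data; inconclusive = too few beads counted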;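 also: 100 nL of 1 mM stock went into each well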
Sa ugtP lethal: compounds lethal to S. aureus RN4220 ugtP deletion mutant. AID 1259309. growth inhibition, % (no concentration beside the values). 330,000 tested, 0.54% active. OD600 growth, 16 h; some inactives read as strong as hits;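 active = z-score under -3 and OD600 up to 0.15 on both plates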;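 also: plate controls were untreated wells for no effect and antibiotic for full effect; wells of about 80 µL received 100 nL stock; the first replicate is given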
BJeLR lethal: kills HRASV12-expressing BJeLR cells; 300,000 tested, 0.17% active; inhibition, % (test concentration not listed); BJeLR (HRASV12) viability, CellTiter-Glo ATP luminescence, 48 h; reference of the scale not given here;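 active = replicate mean above 50%; inconclusive = above 50% but judged a plate artefact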;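 also: 50 nL library stock added to about 25 µL; numbers are from one replicate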
Mtb hypoxia rep: inhibitors of hypoxia-regulated fluorescent reporter in Mycobacterium tuberculosis; M. tuberculosis hypoxia-regulated fluorescent reporter, fluorescence; fluorescence inhibition, % (no concentration beside the values); 300,000 tested, 0.1% active;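 active = 35 to 45% if threefold the growth effect, above 45% if 1.5-fold the growth effect; inactive = the rest, general growth blockers included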;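 also: wells of about 50 µL received 100 nL stock; 0% = vehicle wells and 100% = reference inhibitor wells; whole bacteria with a GFP reporter of the hypoxia response; strong numbers were not always called active; many hits fall short of the cut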
Mtb hypoxia rep growth: recorded beside Mtb hypoxia rep, whose call it bears; growth inhibition, %; measured here: M. tuberculosis growth (absorbance);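 0% = vehicle and 100% = reference antibiotic; read after six days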
Starred values were filed as active, the others as inactive; ? = inconclusive; nt = not tested or not shown; & = joins results of further samples. Not a hit list; about 3.9% have a hit in one of these screens.

SMILES	RN4220 kill	PrP 5UTR inh	Autofluor counter	Sa ugtP lethal	BJeLR lethal	Mtb hypoxia rep	Mtb hypoxia rep growth
COc1ccc(-c2nnc(SCC(=O)Nc3c(Cl)cc(Cl)cc3C(=O)O)o2)cc1	2.6	-11	4208	4	nt	5	1
O=C(NCCCN1CCN(c2ccccc2)CC1)C1CCCN(c2ncnc3c2nc2n3CCCCC2)C1 (centres undefined)	5.9	-14	4100	14	-6	1	6
CCN(CC)S(=O)(=O)c1ccc(C)c(NC(=O)COC(=O)CCC(=O)c2cccs2)c1	2.1	7	?	4	nt	4	-2
Cc1nc2c(sc(=S)n2Cc2ccco2)c(=O)n1CC(=O)Nc1cc(F)ccc1F	2.0	-6	5955	15	9	-11	-9
N#CN(Cc1ccccc1)Cc1ccccc1	3.6	nt	4618	9	-7	13	9
CN(C)c1cccc(C(=O)N(C)C2CCCN(Cc3ccccc3F)C2)c1 (centres undefined)	4.4	-22	3866	1	-9	1	1
CC(C)C[C@H](NC(=O)c1nc[nH]c1C(=O)N1CCN(C(=O)OC(C)(C)C)CC1)C(=O)OC(C)(C)C	nt	43	2896	nt	31	nt	nt
COc1ccc(/C=C(\NC(=O)c2ccc(OCC(C)C)cc2)C(=O)OCc2ccco2)cc1	-1.3	-30	2423	7	-2	-3	7
O=C(OCc1nnc(-c2ccccc2)o1)C1CCN(S(=O)(=O)c2cccs2)CC1	3.5	-21	3208	9	5	nt	nt
CN(C)CCO[C@@H](c1ccc(Cl)cc1)c1ccccn1	2.3	-23	4164	1	25	-2	6
O=C(NC1CCCCCC1)c1cccc(N2CCCC2=O)c1	-0.4	-87	4599	8	4	10	4
Cc1ccc(N(C(=O)CNC(=O)c2ccco2)C(C(=O)NC2CCCC2)c2cccnc2)cc1 (centres undefined)	2.0	-21	5056	4	-4	-1	-7

An excerpt from the list above, for reference:
SMILES	RN4220 kill	PrP 5UTR inh	Autofluor counter	Sa ugtP lethal	BJeLR lethal	Mtb hypoxia rep	Mtb hypoxia rep growth
COc1ccc(-c2nnc(SCC(=O)Nc3c(Cl)cc(Cl)cc3C(=O)O)o2)cc1	2.6	-11	4208	4	nt	5	1
O=C(NCCCN1CCN(c2ccccc2)CC1)C1CCCN(c2ncnc3c2nc2n3CCCCC2)C1 (centres undefined)	5.9	-14	4100	14	-6	1	6

The results go on.
SMILES	RN4220 kill	PrP 5UTR inh	Autofluor counter	Sa ugtP lethal	BJeLR lethal	Mtb hypoxia rep	Mtb hypoxia rep growth
CC1=C(C(=O)OCc2ccccc2)C(c2cccc([N+](=O)[O-])c2)NC(=O)N1CCCCCC(=O)O (centres undefined)	5.2	-24	3080	4	2	17	4
Cc1ccccc1C(=O)Nc1ccnn1C1CCN(C2CCSCC2)CC1	1.2	-16	7225	8	-13	6	7
O=C(c1ccco1)N1CCN=C1SCc1c(F)cccc1Cl	0.9	-11	4229	0	-14	nt	nt
CCCC1(C(=O)OCC)NC(c2ccc(N(C)C)cc2)C2C(=O)N(c3ccc(OCC)cc3)C(=O)C21 (centres undefined)	5.1	-25	3328	17	0	3	7
CS(=O)(=O)N(Cc1ccccc1)c1ccc(C(=O)NCC2CCCO2)cc1 (centres undefined)	1.3	-4	4683	-5	1	-5	1
O=c1cccc(-c2ccccc2)[nH]1	-1.8	10	4425	-2	-6	0	17
O=C(CN1CCC(O)(c2cccc(F)c2)CC1)NCCc1c[nH]c2ccccc12	-1.9	-8	4332	-5	-10	7	-2
Oc1ccc(C=Nc2cccc3ncccc23)c(O)c1	-2.4	-11	4514	-3	-9	1	3
CCOC(=O)c1cc2n(c1C)-c1ccccc1C2=O	6.4	-54	10486	10	12	-2	12
O=C(O)c1cc(-c2ccc(O)cc2)nc2ccccc12	5.9	nt	nt	4	5	-2	-2
CCCn1c2c(c(O)c(C(=O)Nc3ncccc3C)c1=O)CCCC2	5.9	-19	22788*	-12	-5	5	6
Cc1ccc(OCC(=O)NN=Cc2cccn2C)cc1	1.0	nt	nt	1	nt	12	3
C[C@](N)(CCP(=O)(O)O)C(=O)O	4.4	-7	5834	1	nt	2	-1
CCOc1ncccc1C(=O)OCC(=O)N1c2ccccc2CC1C (centres undefined)	1.7	-30	3094	7	nt	0	-5
CC(C)CC1NC(=O)N(CCCCN2C(=O)c3ccccc3C2=O)C1=O (centres undefined)	2.6	-8	2075	0	-3	3	3
O=C1CCCN1CCCNC(=S)Nc1ccc(Cl)cc1Cl	-0.9	-25	3819	-1	3	7	0
O=P(CCO)(c1ccccc1)c1ccccc1	1.9	-23	4318	-1	-2	1	9
O=[N+]([O-])c1ccc2c(c1)Nc1nc3ccccc3nc1N2	3.2	-46	5033	2	-18	4	-4
CN1CCN(Cc2nc3cc(NC(=O)COc4ccc([N+](=O)[O-])cc4)ccc3n2C)CC1	2.4	-11	5752	3	3	9	7
CCc1ccccc1N(C(C)=O)c1nc(CN=C=S)cs1	-1.1	-27	4144	-2	-9	9	1
O=C(CSc1nc2ccccc2s1)NC1CCS(=O)(=O)C1 (centres undefined)	1.7	-6	5880	-3	-2	2	20
CCc1ccc(CNC(=O)C2Cc3cc(S(=O)(=O)N4CCCC4)ccc3N2C(C)=O)cc1 (centres undefined)	-1.2	-18	4830	10	17	13	-2
COc1ccc2c3n(nc2c1)CCN=C3c1ccc(C)cc1	3.6	-24	3137	-14	nt	10	9
COc1cc(NC(=O)c2noc(C)c2[N+](=O)[O-])c(OC)cc1Cl	7.4	7	5565	0	-4	3	7
CCS(=O)(=O)N1CCC(C(=O)N2CCOCC2)CC1	2.7	-20	9919	8	14	12	0
Nc1ncnc2c1ncn2[C@@H]1O[C@H](CNCc2ccc(OCC(=O)Nc3nccs3)cc2)[C@@H](O)[C@H]1O	3.3	47	3753	-1	nt	-13	-3
COc1cc2nc(CN(C)Cc3nc4ccccc4c(=O)[nH]3)[nH]c(=O)c2cc1OC	4.8	nt	7060	3	-11	-8	-4
COc1ccc(-c2nnc(SCC(=O)N3CCCC3)o2)cc1OC	3.1	nt	nt	-8	-4	6	0
Cc1ccc(NC(=O)CCNS(=O)(=O)c2ccccc2F)cc1S(=O)(=O)N1CCOCC1	2.2	-22	5542	-3	6	-3	12
Cc1cc(=O)[nH]c(SCn2nnc3ccccc3c2=O)n1	8.6	-12	10325	1	-5	9	0
CC(C)C(=O)Nc1ccnc(-c2cccnc2)n1	-0.7	-25	22732*	-1	0	0	-6
Cc1ccc2c(c1)N(CC(=O)N(Cc1ccccn1)Cc1ccco1)C(=O)C(C(C)C)O2 (centres undefined)	-1.1	-11	4365	4	-3	3	7
COC(=O)C1C(c2ccccc2)C(C(=O)OCc2ccco2)C1c1ccccc1 (centres undefined)	-3.6	13	20681*	60	-1	6	-1
COc1ccc2c(c1)CCC2=NOC(=O)c1ccccc1C	13	nt	nt	8	nt	15	9
Cc1cc2ccccc2c(=O)n1CC(=O)NCC(=O)N1CCCC1	-2.1	-29	4655	2	-3	nt	nt
O=C(Nc1ccc(F)cc1F)c1ccc2ncsc2c1	-1.8	-54	4301	3	7	-1	-3
CCCNC(=O)C(=O)NCc1ccccn1	0.9	-3	2148	14	1	3	10
COc1ccc(C(CC(=O)N2CCN(c3ccccc3)CC2)c2c(O)cc(OC)cc2OC)cc1 (centres undefined)	4.1	-8	3471	-11	-1	7	8
COc1ccc(/C=N/Nc2nnc(Cc3ccccc3)c(=O)[nH]2)cc1OC	nt	-20	5501	nt	-6	nt	nt
CC1(C)CC(=O)c2cc(C(=O)NCc3ccco3)c(=O)n(-c3ccc(Cl)cc3)c2C1	-2.5	0	4784	8	1	2	7
CC(C)Cn1c(-c2cccs2)nc2ccccc21	-0.9	-13	4284	4	5	17	27
O=C(CBr)N1CCc2ccccc2C(c2ccccc2)C1 (centres undefined)	nt	-14	3379	nt	-1	nt	nt
CCCC(C(=O)NNC(=O)c1cc(C)oc1C)c1ccccc1 (centres undefined)	2.9	-12	3038	4	nt	4	8
NS(=O)(=O)c1ccc(CCNC(=O)CSc2ccc([N+](=O)[O-])cc2)cc1	5.5	-16	5170	0	-1	-4	-4
COc1ccc2cc3cc(C(=O)NCCCN4CCc5ccccc5C4)sc3nc2c1	-2.4	-72	2137	5	7	14	4
O=C1CN(C(=O)COC(=O)c2oc3ccccc3c2COc2ccccc2)c2ccccc2N1	2.4	-14	22869*	-9	-5	4	4
COC(=O)c1cn(CC(=O)Nc2ccc(OC)cc2)c2ccccc12	3.5	-17	3982	0	-10	-2	6
CC(C)(Cc1cc(CC(C)(C)C(=O)O)cc(C(C)(C)C)c1)C(=O)O	8.7	5	4099	0	5	6	4
C#CCNC(=O)C1=CC(c2ccc(C(F)(F)F)cc2)CC(OCc2ccc(CO)cc2)O1 (centres undefined)	9.2&6.6	nt	nt	7&-16	nt	20&3	10&7
O=S(=O)(c1ccc(-c2ccccc2)cc1)N1CCCCC1	7.2	-25	4059	11	-7	3	6
N=C1/C(=C\c2coc3ccc(O)cc3c2=O)C(=O)N=C2SC=CN12	18	-13	5135	-1	11	-5	6
CCOC(=O)C1CCN(C(=O)CN(C)S(=O)(=O)c2ccc3c(c2)c(=O)n(C)c(=O)n3C)CC1	2.5	-2	5161	-1	4	-1	-3
COc1ccc2c(c1)N(C)/C(=C1/SC(=NCc3ccccc3)N(c3ccccc3)C1=O)S2	-19	-10	3653	-11	-1	1	3
C=CCNC(=O)c1c(Cl)cnn1-c1ccc(C)cc1	5.2	-40	3345	1	-2	0	4
COc1ccc(COC(=O)c2n[nH]c3ccccc23)cc1F	11	-32	3291	-2	5	0	3
CC(C)(NC(=O)N1CCOCC1)c1cccc(C(C)(C)NC(=O)N2CCOCC2)c1	4.8	-6	4543	8	2	5	0
O=C(/C=C/c1ccccc1O)c1ccc(Cl)cc1	29	-37	4348	18	2	3	17
Cc1nn(CC(=O)OCC(=O)c2ccc(OC(F)F)cc2)c(C)c1[N+](=O)[O-]	0.2	-22	3655	1	nt	-1	4
COc1ccc(C2=NN(C(=O)c3cccs3)C(c3ccccc3OC)C2)cc1OC (centres undefined)	3.6	1	5181	10	-13	0	3
O=C(NCCN1CCOCC1)c1cc(-c2cccc(O)c2)on1	1.0	-21	5980	15	-18	13	3

(more compounds)
SMILES	RN4220 kill	PrP 5UTR inh	Autofluor counter	Sa ugtP lethal	BJeLR lethal	Mtb hypoxia rep	Mtb hypoxia rep growth
CCOC(=O)C1=C(C)N(C[C@@H]2CC[C@@H](Cc3ccc(-c4ccccc4)cc3)O2)C(=O)NC1c1cccc([N+](=O)[O-])c1 (some centres undefined)	2.1	45	3025	-4	nt	3	3
COC(=O)C1=CN(c2ccc(F)c(F)c2)C=C(C(=O)OC)C1c1ccc([N+](=O)[O-])cc1	-0.1	-13	3718	-9	1	11	12
Cc1nc2ccccc2c(=O)n1CCCn1ccnc1	4.4	-19	4157	15	6	nt	nt
O=C(NC1CC1)C1=C[C@@H](C2CCCCC2)C[C@@H](OCCCCO)O1	nt	0	2823	nt	-2	nt	nt
O=C(NN=C/C(Cl)=C\c1ccccc1)c1cccs1	-3.2	nt	nt	-5	nt	-19	-7
CNC(=O)COC(=O)c1cc2c(C)nn(-c3ccc(F)cc3)c2s1	0.8	-14	16925*	8	0	4	2
COc1ccc(S(=O)(=O)N2CCCC(C(=O)NCc3ccc4c(c3)OCO4)C2)cc1 (centres undefined)	0.4	nt	3410	11	-4	11	3
COc1ccccc1-n1c(SCC(=O)NC2CCCC2)nc2cccnc21	1.9	-28	3858	6	-1	nt	nt
Clc1ccc(COn2nnc3ccccc32)c(Cl)c1	16	-93	3396	9	0	7	5
C/C(O)=C\c1nc(=O)c2c(C)cc(C)nc2n1-c1ccccc1	3.9	-5	8668	-1	8	7	7
O=c1c(Oc2ccccc2F)coc2cc(OCc3cnn(-c4ccccc4)c3)ccc12	9.7	-7	2044	-1	3	3	2
CC1CC(C)(C)N2C(=O)C3(Nc4ccccc4S3)c3cccc1c32 (centres undefined)	3.8	-5	22846*	0	12	15	8
CCc1ccc(Nc2nnc(SCC(=O)Nc3ccc(C(=O)O)cc3)s2)cc1	-0.5	-21	4469	7	5	0	0
CC(C)(O)CNC(=O)Nc1ccc(Cl)c(Cl)c1	2.6	-11	6350	-2	-16	3	-4
